Screening data (PubChem BioAssay)
KCNQ2 block: KCNQ2 potassium channel inhibitors, primary screen, cell-based, CHO-K1, FluxOR thallium flux, B-score (AID 2156); Potassium voltage-gated channel subfamily KQT member 2 (Rattus norvegicus), O88943; 20 min; active compounds read low; only compounds with negative scores are shown here; some inactives read as strong as hits; B-score at 10 µM; 310,000 compounds, 1.1% hits;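 active means fluorescence ratio B-score at most minus 3 library SDs, with starting brightness B-score within 2 library SDs, cut at about -5.5 in these data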
Target sequence (O88943 whole entry, looked up): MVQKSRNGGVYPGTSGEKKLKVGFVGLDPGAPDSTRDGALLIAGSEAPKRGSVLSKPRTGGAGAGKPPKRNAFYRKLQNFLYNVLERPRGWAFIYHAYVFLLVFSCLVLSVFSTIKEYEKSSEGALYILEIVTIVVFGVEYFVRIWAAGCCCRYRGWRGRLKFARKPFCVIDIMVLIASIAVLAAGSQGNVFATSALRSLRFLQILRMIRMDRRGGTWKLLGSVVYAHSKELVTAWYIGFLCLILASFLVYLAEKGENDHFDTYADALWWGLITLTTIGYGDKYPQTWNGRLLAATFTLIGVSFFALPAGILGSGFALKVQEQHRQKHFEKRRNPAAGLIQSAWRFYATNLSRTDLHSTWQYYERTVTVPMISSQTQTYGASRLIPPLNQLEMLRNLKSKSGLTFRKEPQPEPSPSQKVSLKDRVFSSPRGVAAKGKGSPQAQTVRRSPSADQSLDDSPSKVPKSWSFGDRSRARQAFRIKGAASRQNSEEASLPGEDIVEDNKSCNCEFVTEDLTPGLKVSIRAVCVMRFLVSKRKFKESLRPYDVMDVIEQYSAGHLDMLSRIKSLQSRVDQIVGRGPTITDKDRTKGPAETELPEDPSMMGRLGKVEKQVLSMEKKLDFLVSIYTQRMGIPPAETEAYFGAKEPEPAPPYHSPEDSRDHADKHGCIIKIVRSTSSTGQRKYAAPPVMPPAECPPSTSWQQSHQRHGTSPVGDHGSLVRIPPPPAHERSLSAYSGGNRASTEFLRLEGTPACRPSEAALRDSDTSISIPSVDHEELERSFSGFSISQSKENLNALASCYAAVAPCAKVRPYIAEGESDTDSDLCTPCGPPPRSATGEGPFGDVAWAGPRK
KCNQ2 block baseline: also measured in KCNQ2 block; calls as there; B-score; measured here: initial fluorescence intensity artifact check;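 brightness before thallium and not channel activity; 0 = typical well and far values either way flag optical interference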
* = called active by the depositor; i = inactive.

The first 2 entries, to show the layout:
KCNQ2 block	KCNQ2 block baseline	compound
i	-1.66	COc1ccc(-c2cc(C)no2)cc1S(=O)(=O)N1CCOc2ccc(Cl)cc21
i	-0.81	CCOC(=O)C1CCN(Cc2cnc(Oc3ccc(Cl)cc3C)s2)CC1

The list itself, from the start:
KCNQ2 block	KCNQ2 block baseline	compound
i	-1.66	COc1ccc(-c2cc(C)no2)cc1S(=O)(=O)N1CCOc2ccc(Cl)cc21
i	-0.81	CCOC(=O)C1CCN(Cc2cnc(Oc3ccc(Cl)cc3C)s2)CC1
i	-1.09	CCN(CC)CCCNc1cc2n(c(=O)n1)CCc1cc(OC)c(OC)cc1-2
i	0.86	CCOC(=O)c1c(NC(=O)c2ccc(Br)o2)sc2c1CCCC2
i	-0.4	CSc1nc(C(=O)N2CCCC(C(=O)c3ccc(Cl)cc3)C2)cs1 (configuration not stated)
i	1.72	O=C(CN1C(=O)C2CC=CCC2C1=O)Nc1nnc(SCc2ccc(F)cc2)s1 (configuration not stated)
i	1.77	N#Cc1cc(C(=O)c2cc(Br)ccc2O)cn(Cc2ccccc2)c1=O
i	0.69	c1ccc2c(c1)ccc1nnc(SCc3ccc4c(c3)OCO4)n12
i	-1.36	CCCN1C(=O)/C(=C/c2ccc(OCC(=O)OCC)cc2)NC1=S
i	-0.31	O=[N+]([O-])c1ccc(Oc2ncccn2)cc1

(more compounds)
KCNQ2 block	KCNQ2 block baseline	compound
i	-1.66	Clc1ccc(-c2noc(CCCOc3ccccc3)n2)cc1
i	0.08	CC(NS(=O)(=O)c1ccc(F)cc1)C(=O)NCc1ccncc1 (configuration not stated)
i	0.64	COc1ccc(C(=O)Nc2nc3ccc4nc(C)sc4c3s2)cc1
i	0.01	CN1C(=S)SC2CS(=O)(=O)CC21C (configuration not stated)
i	2.12	Cc1ccc(CN2CCN(c3ccccc3Cl)CC2)o1
i	-0.2	Cc1cccc(-c2noc(CCC(=O)Nc3ccccc3)n2)c1
i	0.98	CC1=NOC(=O)/C1=C/c1ccc(N(C)C)cc1
i	0.76	Cc1cccc(N(CC(=O)N/N=C/c2ccc(OCC(=O)NCc3ccco3)cc2)S(C)(=O)=O)c1C
i	0.8	COc1ccc(/C=C2\N=C(c3ccc(C)cc3)OC2=O)cc1
i	-0.77	CCCOc1ccc(C2CC(=O)Nc3cc(OC)c(OC)cc32)cc1 (configuration not stated)

Later entries
KCNQ2 block	KCNQ2 block baseline	compound
i	-0.13	CCN(CC)C(=O)CSc1nnc(-c2ccc(S(=O)(=O)NCc3ccccc3Cl)cc2)o1
i	1.7	C/C=C/C=C/[C@H]1Cc2cc(O)cc(O)c2O1
i	0.06	Clc1ccc(OCc2nc(-c3ccncc3)no2)c(Cl)c1
i	-1.96	COc1ccc(C2NCCc3c2[nH]c2ccccc32)cc1CSc1nc2ccccc2s1 (configuration not stated)
i	-0.13	O=C(O)CNC(=S)N(Cc1ccccc1)Cc1cccs1
i	-0.92	O=c1cc(CO)oc(C(Nc2ccccn2)c2ccccc2Cl)c1O (configuration not stated)
i	-0.91	CCCCCNC(=O)c1c[nH]c2ccc(S(=O)(=O)N3CCC4(CC3)OCCO4)cc2c1=O
i	-0.01	Cc1nc2c(C)cccn2c1/C(O)=C1\C(=O)C(=O)N(CCN(C)C)C1c1ccncc1 (configuration not stated)
i	2.05	COc1ccc(C2c3ccc(O)cc3Oc3ncn(CCCO)c(=N)c32)cc1 (configuration not stated)
i	0.11	CN1CCC(N(C)S(=O)(=O)c2ccc(NC(=O)COc3ccc(F)cc3Cl)cc2)CC1

Three of the compounds above, field by field.
O=C(O)CNC(=S)N(Cc1ccccc1)Cc1cccs1
  KCNQ2 block: i; KCNQ2 block baseline: -0.13
CCCCCNC(=O)c1c[nH]c2ccc(S(=O)(=O)N3CCC4(CC3)OCCO4)cc2c1=O
  KCNQ2 block: i; KCNQ2 block baseline: -0.91
O=c1cc(CO)oc(C(Nc2ccccn2)c2ccccc2Cl)c1O (configuration not stated)
  KCNQ2 block: i; KCNQ2 block baseline: -0.92

Additional structures
KCNQ2 block	KCNQ2 block baseline	compound
i	-1.56	CC(=O)c1cccc(N(CC(=O)NC2CCCC2)C(=O)CNC(=O)c2cccs2)c1
i	-0.13	COc1ccc(Nc2oc(-c3ccccc3Cl)nc2C#N)cc1
i	0.39	Cc1ccc(-c2nnn(CC(=O)N(Cc3cccs3)C(C(=O)NCC3CCCO3)c3ccco3)n2)o1 (configuration not stated)
i	-0.57	O=C1CSC(=S)N1/N=C/c1ccc(C(F)(F)F)cc1
i	0.58	COc1ccc(N=Cc2sc(O)c3ccccc23)cc1
i	0.96	C/C(=N\NC(=O)CCc1c[nH]c2ccccc12)c1cccc([N+](=O)[O-])c1
i	1.27	Cc1ccc(Cn2c(=O)c3cccnc3n(CC(=O)Nc3cccc(C(F)(F)F)c3)c2=O)cc1
i	-0.27	Cc1cnc(C(=O)Nc2ccc(C)c(S(=O)(=O)N(C)C)c2)cn1
i	0.94	Cc1ccc(NC(=O)COC(=O)[C@H](C)NC(N)=O)c(C)c1
i	0.01	COc1ccc(CN2C(=O)C(Cc3ccccc3)Nc3ncnc(N4CCCCC4)c32)cc1 (configuration not stated)

Next part (2 carried over from the part before).
KCNQ2 block	KCNQ2 block baseline	compound
i	0.94	Cc1ccc(NC(=O)COC(=O)[C@H](C)NC(N)=O)c(C)c1
i	0.01	COc1ccc(CN2C(=O)C(Cc3ccccc3)Nc3ncnc(N4CCCCC4)c32)cc1 (configuration not stated)
i	-0.58	CC(=O)c1ccccc1NS(=O)(=O)c1cccc2nsnc12
i	0.98	CC(C)NC(=O)NC(=O)COC(=O)c1ccc(OC(F)(F)F)cc1
i	-0.2	CCCCNC(=O)COCc1cc(-c2ccc3c(c2)OCO3)on1
i	1.86	O=c1[nH]n(-c2cccc3cccnc23)c(=O)c2ccccc12
i	1.08	CCN(CCn1cccn1)Cc1nc(Cc2cccc(F)c2)no1
i	1.34	Cc1ccc(CO/N=C\Cc2snc(Sc3ncc(C(F)(F)F)cc3Cl)c2C#N)cc1
i	0.15	COC(=O)c1ccc(C(=O)N2CCCC(N3CCN(c4ccc(F)cc4)CC3)C2)nc1 (configuration not stated)
i	1.07	O=C1C2C(C(=O)N1/N=C/c1cc([N+](=O)[O-])ccc1O)C1C=CC2C12CC2 (configuration not stated)
i	-0.76	CCCn1c(N)c(N(CCOC)C(=O)/C=C/c2ccc(C(=O)OC)cc2)c(=O)[nH]c1=O
i	-1.29	COC(=O)CNC(c1ccccc1Cl)c1cc(Br)ccc1NC(=O)CCN1CCOCC1 (configuration not stated)

(further entries)
KCNQ2 block	KCNQ2 block baseline	compound
i	0.89	CC1(C)CC(=O)C(C=Nc2ccc(Cl)cn2)=C(O)C1
i	-0.46	COCCn1cnc2c1c(=O)n(CC(=O)OCC(=O)NCCCc1ccccc1)c(=O)n2Cc1ccccc1
i	0.16	CC(=O)Nc1ccc(/C=N/NC(=O)CNC(=O)c2ccccc2)cc1
i	0.2	O=C(c1ccc2c(c1)OCO2)C1CCCN(Cc2cn[nH]c2-c2ccccc2)C1 (configuration not stated)
i	-1.35	CCOC(=O)Cc1csc(N/C(=N/S(=O)(=O)c2ccc(Cl)cc2)c2ccccc2)n1
i	-0.32	COc1cc(CN2CCN(c3ccc(C)cc3)CC2)cc([N+](=O)[O-])c1O
i	2.06	C[C@H]1C=C(C(=O)NCc2ccccc2)O[C@@H](OCc2ccc(CO)cc2)C1
i	0.27	CCN1C(=O)C2(C(C#N)=C(N)Oc3c2c(C)nn3-c2ccccc2)c2ccccc21 (configuration not stated)
i	-0.58	CS(=O)(=O)NCc1nnc(SCc2ccc(C(F)(F)F)cc2)o1
i	0.83	N=C1C(c2nc3ccccc3s2)=C(O)CN1NC(=O)c1ccco1

The list goes on.
KCNQ2 block	KCNQ2 block baseline	compound
i	-1.58	COC(=O)C(NC(C)=O)(Nc1nc(C)cs1)C(F)(F)F (configuration not stated)
i	-0.3	COc1ccccc1/C=C/C(=O)Nc1ccc(S(=O)(=O)Nc2cc(C)nc(C)n2)cc1
i	-0.61	CC(NC(=O)CCc1nnc(Cc2cccc(C(F)(F)F)c2)o1)C1CC1 (configuration not stated)
i	-0.52	CCn1ccc(C(=O)NC2C(=O)N3C(C(=O)O)=C(C)CSC23)n1 (configuration not stated)
i	16.8	Nc1ccc2nc(-c3ccccc3)cnc2c1
i	-1.4	C=CCSC1=N/C(=C\c2cccnc2)C(=O)N1c1ccc(OC)cc1
i	-0.81	CCCCSc1nc2c(cnn2-c2ccc(F)cc2)c(=O)[nH]1
i	1.49	COc1cc(C(=O)NC(=S)N2CCCCCC2)cc(OC)c1OC
i	-0.14	O=C(NCc1cccnc1)C(=O)N/N=C/c1ccccc1[N+](=O)[O-]
i	0.37	CCOC(=O)/C=C1\SCC(=O)N1CC(=O)Nc1ccc2c(c1)CCC2

Continuation.
KCNQ2 block	KCNQ2 block baseline	compound
i	-0.52	O=c1[nH]c(/C=C/c2ccccc2F)nc2ccccc12
i	0.26	CCOc1ccc(N(C(C)C(=O)N2CCCC2)S(C)(=O)=O)cc1 (configuration not stated)
i	0.42	Cc1ccc(C(=O)OC2CCOC2=O)cc1NC(=O)c1ccco1 (configuration not stated)
i	1.18	Cc1cc(Nc2ccccc2)n(-c2nc3ccccc3[nH]2)n1
i	0.52	O=C(c1cc(-c2ccc(Cl)cc2)n(-c2ccc(Cl)cc2)n1)N1CCOCC1
i	0.18	COc1ccc(-c2[nH]nc3c2C2(C(=O)N(CC(=O)O)c4ccccc42)C(C#N)=C(N)O3)cc1OC (configuration not stated)
i	0.04	O=C(N/N=C/c1c(O)ccc2ccccc12)c1[nH]ncc1Br
i	0.5	Oc1ccccc1Nc1nc(-c2ccccc2O)nc2ccccc12
i	0.76	COc1ccc(CN2CCC(C(=O)Nc3ccc(Oc4cccnc4)cc3)CC2)c(C)c1C
i	0.91	O=C(O)[C@H](Cc1ccccc1)NC(=O)N1CCC(Cc2ccccc2)CC1

The list goes on:
KCNQ2 block	KCNQ2 block baseline	compound
i	-0.45	CC1CCCN(C(=S)NCc2ccccc2)C1 (configuration not stated)
i	-0.07	CCCOc1ccc(C(=O)N2CCCC2)cc1OC
i	-0.49	CC(C)CNC(=S)N1CCC(C(=O)c2ccc(F)cc2)CC1
i	0.86	O=C(Cn1nnc(-c2ccc(CN3CCOCC3)cc2)n1)NC1CCCCC1
i	0.95	O=C(NCCN1CCN(Cc2ccc([N+](=O)[O-])cc2)CC1)C(=O)Nc1ccccc1
i	-1.24	Cc1c(C(=O)OC(C)C)[nH]c2c1C(=O)CC(C)(C)C2
i	-0.68	COc1ccc(CCNC(=O)CSc2nnc(-c3ccccc3)c3ccccc23)cc1OC
i	-0.8	NNc1nc2c(Cl)ccc(Cl)c2s1
i	0.34	CCOC(=O)N1CCN(c2nc(SC)nc3sc4c(c23)CC(C)(C)OC4)CC1
i	0.26	COc1cccc(OC)c1NC(=O)c1nc2c(nnn2Cc2ccccc2Cl)c(=O)[nH]1

The last four entries of the part before come first, to join the parts.
KCNQ2 block	KCNQ2 block baseline	compound
i	-0.68	COc1ccc(CCNC(=O)CSc2nnc(-c3ccccc3)c3ccccc23)cc1OC
i	-0.8	NNc1nc2c(Cl)ccc(Cl)c2s1
i	0.34	CCOC(=O)N1CCN(c2nc(SC)nc3sc4c(c23)CC(C)(C)OC4)CC1
i	0.26	COc1cccc(OC)c1NC(=O)c1nc2c(nnn2Cc2ccccc2Cl)c(=O)[nH]1
i	2.23	COC(=O)C1CCCCN1C(=O)c1ccc2oc(Cc3ccccc3)nc2c1 (configuration not stated)
i	-0.03	COc1cccc(-c2nc3ccc([N+](=O)[O-])cc3o2)c1
i	0.78	CN(C(=S)Nc1ccc(SC(F)F)cc1)C(c1ccccc1)c1ccccc1
i	0.09	Cc1ccc(S(=O)(=O)NCCNC(=O)CN2CCCC2)cc1
i	0.52	COCC(C)NC(=O)c1ccc(Cl)c(Cl)c1 (configuration not stated)
-8.1*	0.14*	O=C(NC(Cc1c[nH]c2ccccc12)C(=O)N/N=C/c1cccc2ccccc12)c1cccs1 (configuration not stated)
i	-0.25	O=C(CC12CC3CC(C1)CC(CC(=O)NC1=NCCS1)(C3)C2)NC1=NCCS1
i	-0.31	Cc1ccc(-n2nnc3c(=O)n(CC(=O)NCc4ccco4)cnc32)cc1
i	9.38	Cc1ccc(C2C3CN(C(C)C)CC=C3C(C#N)=C(N)C2(C#N)C#N)cc1 (configuration not stated)
i	-0.89	COc1ccc(OC)c(S(=O)(=O)N2CCC(C(=O)N3CCCCCC3)CC2)c1

The results go on:
KCNQ2 block	KCNQ2 block baseline	compound
i	-0.24	Clc1nc(-c2cccnc2)nc2scc(-c3ccccc3)c12
i	0.79	CC(C)(C)C(=O)OCc1nc(-c2ccc3c(c2)OCCO3)cs1
-7.16*	0.08*	Cc1cc(C)cc(NC(=O)c2cccn2-c2ncc(C(F)(F)F)cc2Cl)c1
i	1.24	COC(=O)c1onc(-c2c(C)cc(C)cc2C)c1C(=O)OC
i	-0.23	COc1ccc(C(CCN(Cc2ccc(OC)c(OC)c2)C(C)=O)c2ccccc2)cc1 (configuration not stated)
i	0.58	O=C(Nc1ccc(C(=O)OC[C@@H]2CCCN3CCCC[C@H]23)cc1)c1cccc(Br)c1
i	0.06	COc1ccc(C(=O)Nc2cccc(C(C)=O)c2)c(OC)c1OC
i	0.36	COc1ccc(C(=O)Nc2ccc(NC(=O)c3cccs3)cn2)cc1
-7.24*	-1.44*	Cc1cc(-c2ccccc2)nc2cc(C(=O)N(Cc3ccccc3)Cc3ccccc3)nn12
i	1.16	Cc1ccc(S(=O)(=O)NCC2COc3ccccc3O2)cc1 (configuration not stated)

Next compounds
KCNQ2 block	KCNQ2 block baseline	compound
i	-1.2	COc1ccc(S(=O)(=O)c2c(O)cc(C)c(NS(=O)(=O)c3ccccc3)c2C)cc1
i	0.24	CN(CC1COCCO1)C(=O)c1cc(COc2c(F)cccc2F)on1 (configuration not stated)
i	1.66	O=c1ccccn1CCOc1ccc(Cl)cc1
i	-1.81	CCCCN(CC)C(=O)c1oc2ccc(S(=O)(=O)N3CCCC3)cc2c1C
i	0.68	CCCS(=O)(=O)c1nc(S(=O)(=O)c2ccc(C)cc2)c(N2CCOCC2)s1
i	0.18	CC(C)CC(c1nnnn1Cc1ccc2c(c1)OCO2)N1CCC(C(N)=O)CC1 (configuration not stated)

Some of the compounds tested; count on the stated rates, not on these rows.
